BmaI1 enzyme – BmaI1 acyl-homoserine lactone synthase inhibition – biochemical, fluorescence intensity, with counterscreen (AID 720554); BmaI1 enzyme assay, fluorescence intensity; active compounds read high; test concentration not given here; a few actives read low; strong numbers were not always called active; inhibition, %; hit rate 0.4% among 12,000;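 active means both replicates within 2 robust z-scores of the inhibited control and a quiet counterscreen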;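 further: 0% = uninhibited enzyme and 100% = inhibited control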
BmaI1 enzyme counterscreen – recorded beside BmaI1 enzyme, whose call it bears; inhibition, %; measured here: counterscreen; design of the counterscreen not given here;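 first of two replicates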
Numbers without * were called inactive. Some of the compounds tested (hit frequency here may not be typical).

Under each structure – BmaI1 enzyme | BmaI1 enzyme counterscreen
CC1(C)C(=O)Nc2ccccc2N1C(=O)COC(=O)CSc1nnc(-c2ccc(Cl)cc2)o1
 : 0 | -6
COc1ccc(-c2nc(CN3CCCC3c3cccs3)cs2)cc1OC (centres undefined)
 : -12 | -12
COc1cc(OC)c(C(=O)OCCOc2ccccc2C)cc1OC
 : 11 | 8
N#CC1(NC(=O)COc2ccc3ccccc3c2)CCCC1
 : 17 | 4
Cc1noc(C)c1COc1cccc(C(=O)OCC(=O)c2ccc[nH]2)c1
 : 22 | 12
O=C(COC(=O)c1ccco1)N=c1sccn1Cc1ccccc1Cl
 : 2 | -4
CSCC(=O)OCc1cc(=O)oc2cc3c(cc12)CCC3
 : 16 | 3
N#Cc1cccc(NC(=O)CNc2ccc3ccccc3c2)c1
 : 43 | 50
O=C(NC1=NCCS1)c1cc2nc(Nc3ccccc3)sc2s1
 : 10 | 11
O=C(CSc1nnc2n1CCCCC2)NC(=O)c1cccs1
 : 4 | 2
O=C(Cc1csc(NC(=O)c2ccco2)n1)NCc1ccc(Cl)cc1
 : -4 | 0
CCn1cc(C(=O)N2CCCSC2=Nc2ccccc2)c(=O)c2ccc(C)nc21
 : -10 | -8
CCCCCCCCCCC[C@@H](C[C@@H]1OC(=O)[C@H]1CCCCCC)OC(=O)[C@H](CC(C)C)NC=O
 : -2 | 4
Cc1ccc(-n2c(C)cc(C(=O)OCc3ccc(C#N)cc3)c2C)cc1
 : 10 | 5
Cc1cc(C#N)c(C)n1CCCn1ccnc1
 : 11 | 14
COc1ccc(NC(=O)COc2ccc(Cl)c(C)c2)cn1
 : 16 | 4
O=C(COc1ncnc2sc(-c3ccccc3)cc12)N1CCNC1=O
 : 26 | 10
Cc1nc2ccc(Cl)cc2nc(C)/c1=N\O
 : 63 | 60
CCS(=O)(=O)c1ccc2c(c1)N1CCS(=O)(=O)N=C1O2
 : -12 | -8
Cc1ccc(C)c(OCC(=O)OCn2nnc3ccccc3c2=O)c1
 : -4 | -5
COc1ccc(C(=O)N[C@H](C(=O)N2CCN(S(=O)(=O)c3ccc(Cl)cc3)CC2)C(C)C)cc1
 : 7 | 6
CCCn1c(C)cc(/C=C(\C#N)C(=O)Oc2c(C)ccc(C)c2C)c1C
 : 18 | 2
CCSc1nnc(NC(=O)/C=C/c2ccc3c(c2)OCCO3)s1
 : -2 | -4
CN(C)CCCNc1oc(-c2ccccc2)nc1C#N
 : 51 | 28
C[C@H]1C[C@@H]2[C@H]([C@@H](O)C[C@@]3(C)[C@H]2CC[C@]3(O)C(=O)CO)[C@@]2(C)C=CC(=O)C=C12
 : -4 | 3
O=C(O)c1cccc(OC(F)F)c1
 : 13 | 11
COC(=O)C(C)Oc1cc2oc(=O)cc(C)c2cc1Cl (centres undefined)
 : -1 | -2
CC(C)c1ccc(C(=O)Nc2ccccc2N2CCN(C)CC2)c(C(C)C)c1
 : 16 | 11
C=CCn1c(SCC(=O)c2ccc(NC(=O)CC)cc2)nnc1C1COc2ccccc2O1 (centres undefined)
 : 16 | 14
O=C(CSc1nc2ccccc2s1)c1ccc(O)cc1O
 : 11 | 8

2 records picked at random from those above, as already listed:
Under each structure – BmaI1 enzyme | BmaI1 enzyme counterscreen
CN(C)CCCNc1oc(-c2ccccc2)nc1C#N
 : 51 | 28
COC(=O)C(C)Oc1cc2oc(=O)cc(C)c2cc1Cl (centres undefined)
 : -1 | -2

(list continues)
Under each structure – BmaI1 enzyme | BmaI1 enzyme counterscreen
NS(=O)(=O)c1ccc(NC(=O)CSc2nc3ccccc3n2C2CCCCC2)cc1
 : 15 | 4
C=CCNC(=O)CSc1nc2scc(-c3ccco3)c2c(=O)n1CC=C
 : 14 | 11
CCN(c1ccccc1)c1cc(C)c2ccccc2n1
 : 8 | 6
Cc1cc(C(=O)NN)c(C)n1-c1ccccc1
 : 76 | 51
N#CCOC(=O)c1ccccc1NC(=O)c1ccccc1
 : 16 | 9
Cc1ccccc1Nc1nc(N)nc(Cn2cc(Br)ccc2=O)n1
 : 10 | 8
Cn1nnnc1SCC(=O)Nc1ccc(C(=O)N2CCN(Cc3cccs3)CC2)cc1
 : 24 | 6
CCN(CC(=O)Nc1ccc(Br)cc1)CC(=O)Nc1ccc(NC(C)=O)cc1
 : 18 | 13
CC(=O)Nc1ccc(/C=C2/C(=O)N(CCC#N)C=C2C)cc1
 : 50 | 12
O=C(CCNC(=O)c1ccccc1Cl)Nc1nccs1
 : 10 | -6
CC(C)NC(=O)COn1nnc2ccc(Cl)cc21
 : -5 | -5
O=C(CNc1nnnn1-c1ccccc1)Nc1ccc(F)c(F)c1F
 : -2 | 4
COc1ccc(Br)cc1CN(C)C(C)C(=O)N1CC(C)OC(C)C1 (centres undefined)
 : 4 | 10
CN1C(=O)NC(=O)C1(C)C
 : 13 | 14
CCN(c1ccccc1)S(=O)(=O)c1ccc(N(C)Cc2cccs2)nc1
 : 5 | 4
COC(=O)c1ccc(CSc2nc3ccccc3c(=O)n2C(C)c2ccccc2)o1 (centres undefined)
 : 4 | -4
CC(=O)OCC(=O)[C@@]12OC(C)(C)O[C@@H]1C[C@H]1[C@@H]3C[C@H](F)C4=CC(=O)C=C[C@]4(C)[C@@]3(F)[C@@H](O)C[C@@]12C
 : 7 | 22
CCOc1ccccc1COC(=O)Cc1coc2cc(O)ccc12
 : 14 | 10
CC(C)(CNC(=O)c1ccccc1Sc1ccccc1C#N)N1CCOCC1
 : 16 | 3
O=C(CSc1nc2scc(-c3ccco3)c2c(=O)n1-c1ccccc1)Nc1ccccc1
 : 16 | 8
Cc1[nH]c2ccc(C(=O)NCC3CCCO3)cc2c1C (centres undefined)
 : 6 | 8
O=C(Cn1c(=O)cnc2ccccc21)NC(=O)NC1CCCCC1
 : -3 | -4
COc1ccc(CNC(=O)CCCOc2ccccc2)cc1
 : 10 | -4
COC(=O)c1ccc2c(=O)[nH]c(CSc3nnc(N)s3)nc2c1
 : 24 | 6
COC(=O)c1cc(OC)c(OC)cc1NC(=O)c1ccc2c(=O)n3c(nc2c1)CCCCC3
 : 12 | 12
CC(C)CC(NC(N)=O)C(=O)NCc1ccccc1Cl (centres undefined)
 : 4 | 4
CCOC(=O)Cc1csc(SCC(=O)NC)n1
 : 10 | -4
CC1Cc2ccccc2N1CC(=O)NC(=O)NC1CCCCC1 (centres undefined)
 : 49 | -4
NC(=O)Cc1c[nH]c2ccccc12
 : 14 | 9
O=C(COC(=O)C12CCC(=O)N1c1ccccc1S2)c1ccc2c(c1)OCO2 (centres undefined)
 : -4 | 4
Clc1ccc2c(c1)C(N1CCNCC1)=Nc1ccccc1O2
 : 2 | 10
CN(C)S(=O)(=O)c1ccc(C(=O)OCC(=O)c2cc3ccccc3o2)cc1
 : 12 | 7
CCOC(=O)C1=C(CSc2nnc(-c3ccccc3)n2CC)NC(=O)NC1c1cccs1 (centres undefined)
 : 4 | -2
Cc1cccc(C(=O)OCC(=O)NC23CC4CC(CC(C4)C2)C3)c1O
 : 18 | 10
CC(C)Oc1ccccc1C(O)c1nnc(-c2ccccc2)o1 (centres undefined)
 : 12 | 0
Cc1noc(C)c1CSCC(=O)OCn1nnc2ccccc2c1=O
 : 11 | 6
O=C(O)c1ccc(CSc2nnc(-c3ccccc3)o2)cc1
 : 7 | 4
CC(Sc1nc(C2CC2)n(-c2ccccc2)n1)C(=O)NC(C)(C#N)C(C)C (centres undefined)
 : 10 | 2
O=C(COc1ccc(-c2nnco2)cc1)N1CCSc2ccccc21
 : 12 | 6
C#C[C@]1(OC(C)=O)CC[C@H]2[C@@H]3CCC4=CC(=O)CC[C@@H]4[C@H]3CC[C@@]21C
 : -7 | -2
CC(C(=O)N1CCc2ccccc21)N(C)CC(=O)Nc1ccccc1Cl (centres undefined)
 : 14 | 10
O=C(NC1CCCc2ccccc21)c1cccs1 (centres undefined)
 : 4 | 8
Cc1ccc(C)c(NC(=O)C(NCC(C)(C)N2CCOCC2)c2ccccc2)c1 (centres undefined)
 : -6 | -12
CC(C)c1ccccc1-n1cc[nH]c1=S
 : 30 | 13
COCC1=C(C(=O)OC(C)OC(=O)OC(C)C)N2C(=O)[C@@H](NC(=O)C(=NOC)c3csc(N)n3)[C@H]2SC1 (some centres undefined)
 : 8 | 8
O=C(COc1ncnc2sccc12)N1CCc2ccccc21
 : 19 | 32
CC1CCCC(C)N1/N=C/c1ccccc1C(=O)O (centres undefined)
 : -14 | -14
O=C1C2CC=CCC2C(=O)N1CC(=O)N(Cc1nnc(-c2ccc(Cl)cc2)o1)C1CC1 (centres undefined)
 : -2 | -4
CCn1cc(C(=O)OCC(=O)N2C(C)CCCC2C)c(=O)c2ccc(C)nc21 (centres undefined)
 : 5 | 4
N#Cc1ccc(OCCOC(=O)Cn2cnnn2)cc1
 : 4 | -4
O=C1c2ccccc2C(=O)N1CCCCn1c(=O)oc2ccccc21
 : 4 | 4
N#C/C(=C(/O)CSc1ncnc2c1cnn2-c1ccccc1)c1nc2ccccc2[nH]1
 : 22 | 18
Cc1ccc(N2C(=O)CC(C(=O)O)C2c2cccs2)cc1 (centres undefined)
 : -10 | -8
CC(OC(=O)/C=C/c1cccc(Cl)c1)C(=O)N1CCN(C(=O)c2ccco2)CC1 (centres undefined)
 : 2 | 0
CN1N=C(C(=O)Nc2nc3ccc(F)cc3s2)CCC1=O
 : -4 | 0
COC(=O)C1CSCN1S(C)(=O)=O (centres undefined)
 : 17 | 12
Cc1nc2ccccc2c(=O)n1-c1ccc(OC(F)F)cc1
 : 4 | 1
NCCc1ccco1
 : 6 | 4
CN(CCO)C(C(=O)Nc1ccc(F)cc1)c1ccccc1 (centres undefined)
 : 14 | 8
O=C(COC(=O)/C=C/c1ccc(S(=O)(=O)N2CCCCCC2)cc1)Nc1ccc2[nH]c(=O)[nH]c2c1
 : 16 | 10

Continuation.
Under each structure – BmaI1 enzyme | BmaI1 enzyme counterscreen
O=C(NCc1ccncc1)c1cccc(S(=O)(=O)N2CCc3ccccc32)c1
 : 38 | 0
CCOC(=O)C1=C(COCCN)NC(C)=C(C(=O)OC)C1c1ccccc1Cl (centres undefined)
 : 10 | 19
c1ccc2sc(COc3ncnc4sccc34)nc2c1
 : 25 | 11
CN(C)S(=O)(=O)c1ccc(Cl)c(C(=O)OCC(=O)C(C)(C)C)c1
 : 10 | 4
O=C(/C=C/c1c(Cl)nc2ccccn12)OCC1CCCO1 (centres undefined)
 : 14 | 7
O=C(CSc1nnc(-c2sc3ccccc3c2Cl)o1)N1CCN(C(=O)c2ccco2)CC1
 : 28 | 13
O=C(Cc1cn2ccsc2n1)N/N=C/c1ccc(N2CCCCC2)cc1
 : -6 | -6
COCC(C)n1c(SCc2cc(=O)n3cc(C)ccc3n2)nc2ccccc2c1=O (centres undefined)
 : 10 | 6
COc1ccc(CC(=O)OCC(=O)Nc2ccc3c(c2)OCCO3)cc1
 : 11 | 1
O=C(/C=C/c1ccco1)OCN1C(=O)c2ccccc2C1=O
 : 14 | 4
O=C1c2ccccc2C(=O)N1CN1C(=O)c2ccccc2C1=O
 : 14 | 12
N#CCCn1cc(C(=O)CSc2n[nH]c(-c3ccc(Cl)cc3)n2)c2ccccc21
 : 13 | 21
CC(OC(=O)c1ccccc1)C(=O)Nc1ccc2c(c1)OCCO2 (centres undefined)
 : 14 | 11
Cc1cc(C(=O)COC(=O)c2ccc3c(=O)n4c(nc3c2)CCC4)c(C)n1C
 : 0 | 8
O=C(CSc1nncs1)NC(=O)NC1CCCC1
 : 10 | 14

Some of the entries so far, with tabs.
SMILES	BmaI1 enzyme	BmaI1 enzyme counterscreen
CCOC(=O)C1=C(COCCN)NC(C)=C(C(=O)OC)C1c1ccccc1Cl (centres undefined)	10	19
c1ccc2sc(COc3ncnc4sccc34)nc2c1	25	11
CN(C)S(=O)(=O)c1ccc(Cl)c(C(=O)OCC(=O)C(C)(C)C)c1	10	4
O=C(/C=C/c1c(Cl)nc2ccccn12)OCC1CCCO1 (centres undefined)	14	7
O=C(CSc1nnc(-c2sc3ccccc3c2Cl)o1)N1CCN(C(=O)c2ccco2)CC1	28	13
O=C(Cc1cn2ccsc2n1)N/N=C/c1ccc(N2CCCCC2)cc1	-6	-6

Next part
Under each structure – BmaI1 enzyme | BmaI1 enzyme counterscreen
CSc1ccccc1NC(=O)CO/N=C(\C)c1cc2ccccc2o1
 : 22 | 9
C/C(=N\N=C(c1ccccc1)c1ccccc1)c1ccco1
 : 6 | 4
CN1CCN(S(=O)(=O)c2ccc(NN)nc2)CC1
 : 48 | -65
N#Cc1ccc(COC(=O)c2ccccc2-c2ncc(-c3ccccc3)o2)cc1
 : 17 | 10
O=C(CSc1ccc2c(c1)OCCO2)c1ccc[nH]1
 : 20 | 14
CC(OC(=O)/C=C/c1ccc(Br)o1)C(=O)Nc1ccc2c(c1)OCO2 (centres undefined)
 : -7 | -10
CCCCNC(=O)Cn1c(=O)oc2ccccc21
 : 13 | 12
Cc1[nH]c2ccccc2c1C(=O)CN1C(=O)NC2(CCOc3ccccc32)C1=O (centres undefined)
 : 25 | 40
CC(C)Cn1c(N)c(C(=O)c2ccc(S(=O)(=O)N3CCCCC3)cc2)c(=O)[nH]c1=O
 : 0 | 2
Cc1ccc(-n2c(=O)c3ccccc3n3c(SCC4CCCCO4)nnc23)c(C)c1 (centres undefined)
 : 6 | 8
Cc1ccc(S(=O)(=O)N2CCN(C(=O)CCN3C(=O)c4ccccc4C3=O)CC2)cc1
 : 12 | -3
CCOc1cc(N2CCOCC2)c(OCC)cc1NC(=O)CN1c2ccccc2CC1C (centres undefined)
 : 49 | 5
OC(Cn1cncn1)c1ccc(Br)cc1Br (centres undefined)
 : 6 | 1
C=CCN=c1scc(-c2ccco2)n1/N=C/C1=CCC2CC1C2(C)C (centres undefined)
 : 24 | 21
O=C(CN1CCN(S(=O)(=O)Cc2ccccc2)CC1)Nc1ccc2[nH]c(=O)[nH]c2c1
 : 36 | 16
CCCn1c(=O)n(C)c(=O)c2c(SCc3cccc(S(=O)(=O)N(C)C)c3)nc(C(C)C)nc21
 : 19 | 17

Bioassay records from PubChem.
